PV pol inh: inhibitors of poliovirus RNA polymerase binding and polymerization | poliovirus polymerase elongation, fluorescence polarization; hits give low values | % elongation, % (compound at 16.7 µg/mL) | actives 0.66% (n = 150,000); in the data active means % elongation below about 90%; further: some results filed as inactive read as strong as hits
Mtb MenB inh: blocks the Mycobacterium tuberculosis MenB enzyme | P9WNP5 | MenB enzyme assay, absorbance read-out; some hits fall short of the stated cut | inhibition, %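 (about 12 µg/mL by stock and volumes)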 | actives 0.43% (n = 100,000) | AID 540299;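 active means mean of two replicates above 30%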;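 further: 0% = no compound and 100% = wells with inactive enzyme; the first replicate is given; strong numbers were not always called active; inactives centre near -10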
Target sequence (P9WNP5 whole entry, looked up): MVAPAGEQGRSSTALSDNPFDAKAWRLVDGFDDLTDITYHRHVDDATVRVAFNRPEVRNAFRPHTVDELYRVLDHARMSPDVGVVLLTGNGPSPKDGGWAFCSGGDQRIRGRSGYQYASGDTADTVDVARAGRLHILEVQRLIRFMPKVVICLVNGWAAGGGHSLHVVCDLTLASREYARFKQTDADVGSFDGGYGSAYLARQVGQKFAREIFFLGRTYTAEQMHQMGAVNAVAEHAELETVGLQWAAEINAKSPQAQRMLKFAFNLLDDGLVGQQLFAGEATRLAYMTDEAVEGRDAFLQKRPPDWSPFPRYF
Mtb MbtI inh: blocks the Mycobacterium tuberculosis siderophore enzyme MbtI; actives 0.89% (n = 100,000); inhibition, %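 (about 17 µg/mL by stock and volumes)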; P9WFX0; purified MbtI enzyme, fluorescence intensity read-out; AID 493033;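 active means above 50% in both replicates, above 80% if mildly self-fluorescent; inactive means the rest, strongly fluorescent compounds included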;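 further: 0% = mean of negative and 100% = mean of positive controls; one replicate is shown; some compounds called inactive have numbers as strong as hits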
Target sequence (P9WFX0 whole entry, looked up): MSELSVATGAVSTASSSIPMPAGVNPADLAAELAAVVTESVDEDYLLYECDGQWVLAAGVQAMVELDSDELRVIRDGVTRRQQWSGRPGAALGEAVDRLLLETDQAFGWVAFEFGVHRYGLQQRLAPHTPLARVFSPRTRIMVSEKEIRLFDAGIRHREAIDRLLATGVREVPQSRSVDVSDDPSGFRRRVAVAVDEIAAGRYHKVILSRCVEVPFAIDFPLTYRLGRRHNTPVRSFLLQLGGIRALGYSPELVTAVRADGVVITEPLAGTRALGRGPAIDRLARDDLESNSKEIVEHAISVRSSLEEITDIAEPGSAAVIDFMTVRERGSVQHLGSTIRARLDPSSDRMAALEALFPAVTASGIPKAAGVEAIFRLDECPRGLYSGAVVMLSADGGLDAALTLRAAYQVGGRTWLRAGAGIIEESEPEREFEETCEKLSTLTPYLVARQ
PV pol inh intensity: also measured in PV pol inh; calls as there; % elongation; measured here: total intensity read-out; formula for this scale not given here;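 total fluorescence in place of polarization; lower means less elongation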
The depositor's hits bear a star; / = no result given.

compound	PV pol inh	PV pol inh intensity	Mtb MenB inh	Mtb MbtI inh
CCN(CC)Cc1c(O)ccc2c1O/C(=C\c1ccccc1Cl)C2=O	98	127	-209	5
COC(=O)c1[nH]nc2c1C(=O)N(Cc1ccccc1)C2=O	101	106	-21	4
O=c1oc2ccccc2n1Cc1ccc(Cl)cc1	107	109	3	-9
S=c1oc(Cc2ccccc2)nn1CN1CCOCC1	99	86	-31	/
Cc1cccc(C)c1NC(=O)CSc1nnc(C)n1Cc1ccccc1	102	104	15	-2
Fc1ccc(-c2nc3n(n2)Cc2ccccc2-3)cc1	100	106	-7	-10
CC(SCc1ccc(Br)cc1)C(=O)O (configuration not stated)	99	102	1	0
Cc1nc2ccccc2nc1OCC(=O)N1CCN(c2ccccc2)CC1	100	101	-6	11
CNC(=O)NC(=O)C(C)Sc1nc2ccccc2s1 (configuration not stated)	108	122	-16	11
CCN(CC(=O)NC1CCS(=O)(=O)C1)C(=O)c1ccccc1-c1ccccc1 (configuration not stated)	/	/	-17	-6
O=C(Nc1ccccc1)N1CCN(c2nc(-c3ccccc3)ns2)CC1	103	104	-34	1
CCc1ccc(NCc2nnc(-c3ccccc3)o2)cc1	103	103	-10	-5
CN(C)S(=O)(=O)c1ccc(S(=O)(=O)N(CC(=O)Nc2ccccc2)C2CC2)cc1	102	99	-25	-7
COC(=O)CC1=C(C(=O)OC)C2(C(=O)Nc3ccccc32)C(C(=O)OC)=C(N)O1 (configuration not stated)	103	110	-3	-7
Cc1cc(=O)n(CC(=O)N2CCN(Cc3ccc4c(c3)OCO4)CC2)c2c1c(C)nn2-c1ccccc1	99	102	-33	-9
Cc1cc(C(C)(C)C)ccc1OCC(N)=O	100	96	/	0
O=c1c(-c2ccon2)c(O)c2ccccc2n1-c1ccccc1	105	105	-76	/
O=C(O)CCC(=O)N1CC(=O)Nc2ccc(Br)cc2C1c1ccccc1 (configuration not stated)	102	101	-29	-16
CC(N=C1CC(C)(C)CC(=O)/C1=C(O)/C=C/c1ccccc1)C(=O)O (configuration not stated)	100	102	-11	/
O=C(N/N=C/C1=C(Sc2nc3ccccc3o2)CCCC1)C1COc2ccccc2O1 (configuration not stated)	100	105	-8	2
CC1CCCCC1NC(=O)COC(=O)c1cc(=O)c2ccccc2o1 (configuration not stated)	96	101	9	12
CC(Sc1nnc(-c2ccccc2Br)o1)C(=O)NC1(C#N)CCCCC1 (configuration not stated)	102	107	-14	10
c1ccc(Cn2nnnc2C(c2cccnc2)N2CCN(c3ccccc3)CC2)cc1 (configuration not stated)	103	102	2	-9
CCCCn1nc(C(=O)Nc2ccccc2)c2ccccc2c1=O	104	104	-8	-2
CC(Oc1cccc2ccccc12)C(=O)NN (configuration not stated)	103	102	-4	13
C=CC1CN2CCC1C(C(O)c1ccnc3ccc(OC)cc13)C2 (configuration not stated)	100	100	-21	130
CCc1ccc(NC(=S)NC(=O)c2cccs2)cc1	103	106	-23	-5
COC(=O)c1cn(C(C)C(=O)NCc2ccco2)c2ccccc12 (configuration not stated)	103	105	-22	-3
CCSc1nnc2c(n1)OC(c1cc(O)ccc1Br)Nc1ccccc1-2 (configuration not stated)	94	115	-10	2
C=CCn1cnc2c(c1=O)c1nc3ccccc3nc1n2-c1cccc(Br)c1	101	104	-25	-25
O=C(OCn1nnc2ccccc2c1=O)C1CC(O)CN1S(=O)(=O)c1ccc(Cl)cc1 (configuration not stated)	99	108	-9	29
CCN(C(=O)C(C)Nc1ccc(OC)cc1OC)C1CCCCC1 (configuration not stated)	110	116	-17	10
CC(C)=NNC(=O)c1cccn1C	102	101	-6	9
Cc1ccc(S(=O)(=O)NC(=O)NCC2CCN(C(=O)OC(C)(C)C)CC2)cc1	102	102	13	-3
CCCN1CC=C2C(C#N)=C(N)C(C#N)(C#N)C(c3ccc(F)cc3F)C2C1 (configuration not stated)	76	194	-81	88
Cc1ccccc1COc1ccc2oc(-c3ccco3)cc(=O)c2c1	104	101	12	23
CCS(=O)(=O)N1CCNCC1	102	103	12	-11
CCN1C(=O)c2cccc3c(S(=O)(=O)N4CCC(C)CC4)ccc1c23	106	99	-12	-9
CC(=O)Oc1ccc2c(=O)c(-c3ccccc3C)c(C)oc2c1C	103	107	-1	-4
Cc1ccc(NC(=O)c2cc(-c3cccs3)nc3ccccc23)nc1	101	103	/	-4
O=C(NC(=O)N(Cc1ccccc1)C1CC2CCC1C2)c1c(Cl)cccc1Cl (configuration not stated)	106	112	-17	-4
CC(C)(C)CC(C)(C)c1ccc(OCOCCOCCO)c(Cc2cc(C(C)(C)CC(C)(C)C)cc(Cc3cc(C(C)(C)CC(C)(C)C)ccc3OCOCCOCCO)c2OCOCCOCCO)c1	101	100	-14	-17
C/C(=N\NC(=O)COc1cccc(Br)c1)c1ccco1	103	101	25	13
CN1CN2C(=O)N3CN(C)CN4C(=O)N(C1)C2C34 (configuration not stated)	101	102	-36	4
Cc1nc2ccc(NC(=O)NC(=O)c3ccccc3Cl)cc2o1	99	100	5	-10
O=C(Nc1ccc2c(c1)C(=O)NC2=O)C1=COCCO1	102	100	-14	-1
CN1C(=O)SC(N(CC(N)=O)c2ccccc2)C1=O (configuration not stated)	99	102	-19	9
C=CCSc1n[nH]c(-c2ccc(C(F)(F)F)cc2)n1	109	108	-14	-34
CN1C(=O)CC(NCCc2ccc(S(N)(=O)=O)cc2)C1=O (configuration not stated)	101	103	15	-14
CCOC(=O)c1oc2ccc(S(=O)(=O)N3CCOCC3)cc2c1C	103	106	11	-6

(list continues)
compound	PV pol inh	PV pol inh intensity	Mtb MenB inh	Mtb MbtI inh
O=C(Nc1nc2ccccc2s1)C(F)(F)F	104	102	/	-4
N#Cc1ccc(OCC(=O)c2ccc3c(c2)OCO3)cc1	107	108	-25	7
CC(=O)Oc1ccccc1C(=O)N1CC(C)CC(C)C1 (configuration not stated)	108	112	-48	/
CCc1ccc(N(Cc2cc(=O)n3ccccc3n2)C2=NC3CS(=O)(=O)CC3S2)cc1 (configuration not stated)	104	110	-6	14
CCCC(=O)Nc1sc(C)c(C)c1C#N	101	99	-22	89
Cc1cccc(NC(=O)c2cc(=O)[nH]c3ccccc23)c1	102	106	-23	/
Cc1ccc(Oc2cc(C#N)c3ccccc3n2)cc1C	105	108	/	4
COC(=O)c1ccc(C2SCC(=O)N2CCC(C)C)cc1 (configuration not stated)	101	99	-20	7
Cc1ccc(NC(=O)/C(C#N)=C/c2cn(CC(=O)NCc3ccco3)c3ccccc23)c(C)c1	100	106	-8	-12
Cc1nc2ccccc2n1S(=O)(=O)c1cccc(C(F)(F)F)c1	102	114	-2	-38
Cc1csc(SCC(=O)N(C)Cc2ccccc2C)n1	99	103	7	1
CCOC(=O)c1c(C)[nH]c(C)c1S(=O)(=O)NCC(=O)Nc1ccc(Cl)c(C(F)(F)F)c1	100	101	-6	-12
CN(C)C(=O)Cn1c(-c2ccc(F)cc2)ccc(C#N)c1=O	103	104	-16	7
O=C(O)CCN1CCn2c1nc1ccccc12	96	103	-20	/
O=C(O)C1Cc2[nH]cnc2C(c2ccc(F)cc2)N1 (configuration not stated)	100	106	-18	9
O=C(CN1c2ccccc2S(=O)(=O)c2ccccc21)Nc1cccnc1	100	101	4	5
CCOc1ccc(C(=O)Cc2ccc3oc(C(=O)O)cc3c2)c(O)c1	101	105	5	11
S=C(SCc1ccc(CSC(=S)N2CCOCC2)cc1)N1CCOCC1	100	108	-6	/
O=C1c2ccccc2C(=O)N1CCc1nc(-c2cccnc2)no1	101	100	4	4
O=C(O)/C=C/C(=O)Nc1cccc(NC(=O)/C=C/C(=O)O)c1	101	104	-3	-7
Cc1c(C(=O)Cc2ccccc2)n(C)c2ccccc12	106	110	/	7
S=C(Nc1ccccc1)N1CCc2ccccc21	99	102	7	7
COc1ccc2[nH]c(=O)c(C(=O)O)cc2c1	101	102	-10	-27
Cc1nc2c(-c3ccccc3)c(C)nn2c(C)c1CC(=O)NCCCN1CCCC1=O	102	103	-16	11
CC(C)c1ccc(C(C)N)cc1 (configuration not stated)	104	103	-19	-8

Next part
Screens in order – PV pol inh | PV pol inh intensity | Mtb MenB inh | Mtb MbtI inh
> CC1CCCN(S(=O)(=O)c2ccc(S(=O)(=O)N3CCN(C=O)CC3)cc2)C1 (configuration not stated)
  104 | 105 | -7 | 7
> N#CC(C#N)=C(N1CCOCC1)C(F)(F)F
  100 | 101 | -173 | 0
> O=C(O)C1Cc2ccccc2CN1C(=O)c1ccco1 (configuration not stated)
  105 | 108 | / | -8
> COCC(C)N=C1NN=C(c2cc(C)n(CC3COc4ccccc4O3)c2C)CS1 (configuration not stated)
  104 | 107 | -18 | 0
> CCC(=O)N(c1nnc(SCc2csc(N(C(C)=O)c3ccccc3)n2)s1)C1CC1
  103 | 108 | 14 | -3
> O=C(c1ccc2c(c1)OCCCO2)c1cccs1
  106 | 104 | -19 | /
> CC1Cc2cc(S(=O)(=O)Nc3ccccc3N3CCN(C)CC3)ccc2N1C(=O)C1CC1 (configuration not stated)
  101 | 103 | -6 | -6
> CC(C)CCNC(=O)c1cnn2c(C(F)(F)F)cc(-c3ccco3)nc12
  101 | 151 | -39 | 18
> CN1CCN(CC(O)COCCC23CC4CC(CC(C4)C2)C3)CC1 (configuration not stated)
  101 | 104 | -7 | /
> O=C(NC1CCCCCC1)c1cn(-c2ccc(F)cc2)nn1
  103 | 103 | 5 | -14
> Cc1cccc(N(C(=O)c2ccccc2)C2=NCC(C)S2)c1 (configuration not stated)
  103 | 108 | / | -1
> CCc1ccc(NC(=O)CCNC(=O)Cn2ccc3ccccc3c2=O)cc1
  101 | 107 | -17 | 7
> COC(=O)Cn1c(=NC(=O)CSCC(=O)NC2CCCCC2)sc2cc(OC)ccc21
  100 | 104 | -15 | 4
> CCc1nnc(NC(=O)c2c(O)c3ccccc3[nH]c2=O)s1
  102 | 102 | -49 | -4
> O=C(O)C1CCCN(C(=O)c2ccc(Cl)cc2)C1 (configuration not stated)
  101 | 101 | / | 0
> CC(CC1CC(C)(C)OC1=O)c1nc(=S)[nH][nH]1 (configuration not stated)
  95 | 97 | -10 | 64*
> Cc1ccc(-c2ccc(C#N)c(=O)n2CC(=O)N2CCC(C(N)=O)CC2)cc1
  103 | 100 | -23 | 90
> CC1CCCCC1NC(=O)c1ccc2c(c1)NC(=O)C1CCCN21 (configuration not stated)
  105 | 105 | 2 | 1
> CCCN1C(=O)c2ccccc2NC1c1cc(OC)c(OC)c(OC)c1 (configuration not stated)
  104 | 102 | -36 | 88
> CC(=O)Nc1nc(CSc2nc3ccccc3n2C)cs1
  104 | 110 | -6 | 2
> CN(C)CCCNCc1cccs1
  104 | 103 | -10 | -3
> COc1ccccc1C(=O)NCc1ccccc1C
  99 | 103 | -27 | -11
> c1ccc(-c2cc(N3CCOCC3)nc(-c3ccccc3)n2)cc1
  108 | 114 | -8 | /
> Nc1cnc(-c2ccccc2)nc1
  99 | 107 | -20 | 101
> O=C(CSc1nnc(C2COc3ccccc3O2)o1)N1CCCCC1 (configuration not stated)
  100 | 103 | -11 | -3
> Cc1cnc(C(=O)OCC(=O)NCC23CC4CC(CC(C4)C2)C3)cn1
  / | / | -15 | -15
> Cc1nc(-c2ccc3[nH]c(=O)oc3c2)cs1
  74* | 83* | -13 | 97*
> COc1ccc(Cl)cc1C(=O)Nc1nc(-c2ccc(C)o2)cs1
  93 | 99 | -2 | 12
> O=C(CSn1nnnc1-c1ccccc1)c1ccccc1
  108 | 115 | -8 | /
> CCSc1nnc(CNC(=O)c2cccc(OC)c2)n1-c1ccccc1OC
  103 | 103 | -20 | -2
> COc1ccc(C2CC(c3cc(OC)cc(OC)c3)=NC(N)=N2)cc1 (configuration not stated)
  103 | 110 | -19 | /

Structural class: the entries above containing a cyano group (nine)
Screens in order – PV pol inh | PV pol inh intensity | Mtb MenB inh | Mtb MbtI inh
> CC(Sc1nnc(-c2ccccc2Br)o1)C(=O)NC1(C#N)CCCCC1 (configuration not stated)
  102 | 107 | -14 | 10
> CCCN1CC=C2C(C#N)=C(N)C(C#N)(C#N)C(c3ccc(F)cc3F)C2C1 (configuration not stated)
  76 | 194 | -81 | 88
> N#Cc1ccc(OCC(=O)c2ccc3c(c2)OCO3)cc1
  107 | 108 | -25 | 7
> CCCC(=O)Nc1sc(C)c(C)c1C#N
  101 | 99 | -22 | 89
> Cc1ccc(Oc2cc(C#N)c3ccccc3n2)cc1C
  105 | 108 | / | 4
> Cc1ccc(NC(=O)/C(C#N)=C/c2cn(CC(=O)NCc3ccco3)c3ccccc23)c(C)c1
  100 | 106 | -8 | -12
> CN(C)C(=O)Cn1c(-c2ccc(F)cc2)ccc(C#N)c1=O
  103 | 104 | -16 | 7
> N#CC(C#N)=C(N1CCOCC1)C(F)(F)F
  100 | 101 | -173 | 0
> Cc1ccc(-c2ccc(C#N)c(=O)n2CC(=O)N2CCC(C(N)=O)CC2)cc1
  103 | 100 | -23 | 90

An unsorted share of the library; about 1.7% have a hit in one of these screens.
